Bioassay records from PubChem.
B2AR ag = activates human beta-2 adrenergic receptor causing internalization | P07550 | Am2.2-beta2AR cells, FAP receptor internalization, flow cytometry; reference of the scale not given here | response, % (concentration not given with the values) | hit rate 0.43% among 340,000;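 active means response above a set limit, near 3 SD of response in nonfluorescent compounds, cut at about 42% in these data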;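 further: stock transfer was 100 nL into about 11 µL; a reference agonist was the positive control; negative values mostly stem from fluorescent compounds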
Beta apoptosis = beta cell apoptosis inhibition. INS-1E cytokine-induced death, ATP luminescence, 48 h; percent of positive-control rescue, neutral wells zero. protection from apoptosis, % (concentration not given with the values). hit rate 0.8% among 300,000;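 active means all replicates at 75% or more, or half of them and the mean; inconclusive means half reach 75% but not the mean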;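 further: 0% = cytokine-treated negative control wells and 100% = positive control rescue; higher means more ATP so stronger rescue from cytokine killing; wells of about 40 µL received 100 nL stock; the first replicate is given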
UCH37 DUB inh = inhibitors of human deubiquitinating enzyme UCH37; Q9Y5K5; purified proteasome/UCH37, Ub-AMC cleavage fluorescence; inhibition, % (test concentration not listed); hit rate 0.33% among 330,000; AID 588478;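 active means mean of two replicates above 20%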;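 further: 0% = compound-free wells with enzyme and 100% = wells lacking proteasome; stock transfer was 100 nL into about 20 µL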
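Reagent: Ub-AMC substrate; assay system: Proteasome-associated human UCH37 deubiquitinase; controls: no-proteasome and no-compound wells; read-out: % inhibition of Ub-AMC cleavage fluorescence; timing: 30 min preincubation with enzyme, 25 min cleavage at room temperature; signal: AMC fluorescence from Ub-AMC cleavage, excitation 355 nm, emission 460 nm; buffer or medium: Tris-HCl pH 7.4 plus ovalbumin, ATP-MgCl2, DTT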
A1 inh = inhibitors of the anti-apoptotic protein A1, read as caspase activation; MEF A1-2A-BIM cells, Caspase-Glo 3/7 luminescence, 3 h; percent of clofoctol response, vehicle zero; AID 2462; caspase activation, % (no concentration beside the values); hit rate 0.066% among 330,000;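 active means over half of replicate activation scores above 10%, or exactly half above 10 with the replicate mean above 10; inconclusive means replicate mean below 10 yet half the replicates above 10; inactive means over half of replicates below 10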;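 further: wells of about 30 µL received 50 nL stock; many hits fall short of the cut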
Calb FLC = C. albicans growth modulation with fluconazole; C. albicans CaCi-2 (fluconazole-resistant clinical isolate) + fluconazole, Alamar Blue growth, 48 h; growth inhibition, % (concentration not given with the values); hit rate 0.57% among 300,000; AID 1979;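 active means most replicates above 75%; inconclusive means exactly half above 75%; inactive means most below 75%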;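 further: all wells also contain fluconazole at 8 µg/ml as a sub-toxic cotreatment; 0% = median of DMSO wells and 100% = median of geldanamycin control wells; wells of about 8 µL received 7.5 nL stock; the first replicate is given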
T cruzi repl = T. cruzi replication inhibition | T. cruzi beta-gal in NIH3T3, luminescence, 90 h | inhibition, % (test concentration not listed) | hit rate 1.4% among 300,000 | AID 1885;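 active means mean inhibition across valid replicates above about 55%, limit read from the data; inconclusive means mean below that limit but half or more replicates reach it; inactive means mean below it, under half of replicates reach it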;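 further: signal also drops with host cell toxicity which is not excluded here; 0% = plate median of DMSO wells and 100% = zero luminescence signal; higher percent means less beta-gal luminescence so fewer parasites; stock transfer was 50 nL into about 50 µL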
LANA-H2A inh = blocks KSHV LANA binding to histone H2A/H2B. cell-free LANA-H2A/H2B peptide, fluorescence polarization. inhibition, % (no concentration beside the values). hit rate 0.6% among 320,000. AID 2629; in the data active means inhibition mostly above about 10%, no sharp cut-off; inactive means mostly below about 6.7%;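 further: stock transfer was 7.5 nL into about 10 µL; 0% = median of vehicle wells and 100% = median of positive control wells; one replicate is shown; the record names a cut of 25% in any replicate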
Target sequence (Q9QR71 whole entry, looked up): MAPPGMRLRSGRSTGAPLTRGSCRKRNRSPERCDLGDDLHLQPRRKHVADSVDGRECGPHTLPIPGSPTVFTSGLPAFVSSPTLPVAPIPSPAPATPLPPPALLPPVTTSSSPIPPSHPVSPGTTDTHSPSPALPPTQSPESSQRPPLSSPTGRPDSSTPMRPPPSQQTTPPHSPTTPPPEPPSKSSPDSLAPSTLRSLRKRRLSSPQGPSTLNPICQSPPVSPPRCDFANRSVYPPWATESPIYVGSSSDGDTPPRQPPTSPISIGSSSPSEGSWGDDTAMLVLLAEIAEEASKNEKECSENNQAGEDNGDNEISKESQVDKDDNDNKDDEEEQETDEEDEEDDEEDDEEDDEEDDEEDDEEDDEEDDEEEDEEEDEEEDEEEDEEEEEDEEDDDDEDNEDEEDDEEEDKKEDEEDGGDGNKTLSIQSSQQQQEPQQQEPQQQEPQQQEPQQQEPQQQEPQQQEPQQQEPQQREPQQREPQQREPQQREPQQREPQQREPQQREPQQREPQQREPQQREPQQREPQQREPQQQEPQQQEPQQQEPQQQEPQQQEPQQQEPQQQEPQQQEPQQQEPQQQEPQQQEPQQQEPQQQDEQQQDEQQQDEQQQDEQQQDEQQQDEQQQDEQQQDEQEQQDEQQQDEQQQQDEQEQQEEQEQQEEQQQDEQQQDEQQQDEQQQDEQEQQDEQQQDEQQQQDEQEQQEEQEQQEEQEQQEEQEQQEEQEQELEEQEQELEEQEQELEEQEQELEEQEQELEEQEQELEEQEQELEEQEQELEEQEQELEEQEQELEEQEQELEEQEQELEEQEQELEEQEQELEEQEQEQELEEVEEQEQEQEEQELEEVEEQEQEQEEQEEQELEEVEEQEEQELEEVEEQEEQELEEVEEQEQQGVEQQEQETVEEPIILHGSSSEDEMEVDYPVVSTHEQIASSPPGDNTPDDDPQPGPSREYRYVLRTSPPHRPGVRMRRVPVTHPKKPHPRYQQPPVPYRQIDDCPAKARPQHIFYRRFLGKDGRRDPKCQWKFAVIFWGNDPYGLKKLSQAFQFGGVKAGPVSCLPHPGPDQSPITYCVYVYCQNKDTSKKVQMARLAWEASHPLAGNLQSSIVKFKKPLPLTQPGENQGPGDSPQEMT
RanGTP-Impb inh = inhibitors of RanGTP-importin-beta interaction, primary screen, biochemical, FRET, CFP-Ran, YFP-importin-beta, homogeneous; AID 2216; hit rate 1.1% among 300,000; cell-free CFP-Ran/YFP-importin-beta FRET ratio; inhibition, % (no concentration beside the values);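 active means most replicates above 15%; inconclusive means exactly half above 15%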;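 further: 0% = DMSO wells and 100% = Ran loaded with GDP instead of GTP; wells of about 40 µL received 100 nL stock; the first replicate is given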
Starred values were filed as active, the others as inactive; i = inactive; ? = inconclusive; / = not tested or not shown.

SMILES	B2AR ag	Beta apoptosis	UCH37 DUB inh	A1 inh	Calb FLC	T cruzi repl	LANA-H2A inh	RanGTP-Impb inh
CC(C)(C)NC(=O)C(c1cccnc1)N(C(=O)c1csnn1)c1ccccc1 (stereo not given)	-8	-5	3.1	0.2	-7	-8	3.2	-2.9
COC(=O)c1ccc(NC(=O)CSc2nnc(CNc3ccc(F)cc3)n2C)cc1	9	-3	4.5	0.4	8	5	-0.6	-0.2
COc1nc(Oc2ccc(C(=O)O)cc2)nc(Oc2ccc(C(=O)O)cc2)n1	-4	0	3.9	-0.2	0	-10	-2.3	3.8
O=C(OCC(=O)c1ccc[nH]1)c1ccc(Cl)c(Cl)c1	2	2	0.6	-0.4	/	/	5.1	/
C[C@@]12C(=O)Nc3ccc(Br)cc3C(=O)N1[C@H]1c3cc(Br)ccc3OC[C@@H]1[C@@H]2c1ccccc1	-1	16	3.6	0.5	/	/	-6.2	/
CCOC(=O)c1sc(NC(=S)NC(=O)c2ccco2)nc1C	1	0	8.7	-0.2	-1	-7	-0.3	-2.4
O=C(CSc1nnc(-c2ccco2)n1Cc1ccccc1)c1ccccc1	-15	6	4.7	-1.2	-4	8	-0.3	-2.5
COc1ccc(CNC(=O)/C(C#N)=C/c2cccc(OC)c2OC)cc1	40	0	-1.5	-1.9	-1	15	-7.4	5.6
COCCCNCCOCCSc1ccc(Cl)cc1	2	-6	2.5	0.3	-54	43	/	-1.4
CCOC(=O)C1CCCN(C(=O)CCNS(=O)(=O)c2cc(Br)cnc2N)C1 (stereo not given)	7	-11	-3.9	-2.7	-7	-7	6.0	6.0
CCCSc1sc(C(=O)OC)c(-c2cccs2)c1C#N	-3	-2	0.4	0.7	-3	19	-2.8	3.9
CCCC(C)NC(=O)COc1ccc(Sc2ccc(OCC(=O)NC(C)CCC)cc2)cc1 (stereo not given)	6	14	-0.7	0.3	-9	-12	/	0.4
COC(=O)C1=C(C(=O)OC)[N+]2=C3N(C(=O)NC2(C)C)[C@H](CO)C[C@@]32c3ccccc3N(Cc3ccccc3)[C@@H]12	13	-2	2.0	0.6	-5	9	8.4	-4.5
CCCC(=O)NCC(c1cccs1)S(=O)(=O)c1ccc(Cl)cc1 (stereo not given)	-2	-1	1.7	-0.4	13	-14	-5.2	0.0
O=C1C=C(c2ccc(-c3ccccc3)c(F)c2)C[C@@H](c2ccc3c(c2)OCO3)C1	-3	-24	1.9	-0.2	/	/	-0.5	/
Cc1cccc(NC(=O)N(C)Cc2cccs2)c1	-2	2	-1.2	-0.5	-69	-9	-2.2	-1.0
O=C(CN1CCN(c2ccccn2)CC1)Nc1ccc([N+](=O)[O-])cc1C(=O)Nc1ccccc1F	5	12	3.4	0.4	15	13	-1.7	?
Cc1ccc(N2CN=C3SCC(=O)N3C2)cc1C	2	-3	1.8	-0.1	-13	1	2.7	1.1
CCOC(=O)CC1COCCN1Cc1cn[nH]c1-c1ccc2c(c1)OCO2 (stereo not given)	2	-3	2.3	-0.5	11	-8	-5.5	-4.8
Cc1ccc(OCC(=O)N/N=C/c2ccc([N+](=O)[O-])o2)cc1	15	9	/	-0.8	39	66*	-2.4	1.9
CCOC(=O)CNC(=O)CSc1nnc(-c2ccco2)n1N	1	0	-0.1	-0.4	-28	-10	-0.5	2.2
CCc1ccc(OCC(=O)N(Cc2ccccc2)C2CCS(=O)(=O)C2)cc1 (stereo not given)	-1	-4	1.4	0.1	2	17	-6.2	0.7
O=C(c1cc(Cl)ccc1[N+](=O)[O-])N1CCc2ccccc2C1	-2	-5	4.1	0.1	-16	-18	5.2	5.0
Cc1c(C)c2ccc(OC(C)C(=O)N3CC[C@@]4(O)CCCC[C@H]4C3)c(C)c2oc1=O (stereo not given in full)	-8	2	-69	0.2	-5	-11	0.1	2.9
CN(C)C(=O)CSc1nnc(NC(=O)CCc2ccccc2)s1	-8	-4	4.1	1.0	6	-5	5.2	-4.4
CCOC(=O)c1ccc(S(=O)(=O)N2CCN(CCC#N)CC2)cc1	-2	1	-0.2	0.0	-2	-6	-2.2	-1.2
O=C(CNC(=O)c1ccccc1F)NNC(=O)c1ccccc1O	-4	0	-28	0.9	5	-18	/	0.7
C=CCNC(=O)C1(S(=O)(=O)c2ccccc2)CC=CC1	-1	-6	2.5	0.9	6	-6	-2.2	2.1
CN(C)c1ccc(N=Nc2cccc3ccoc23)cc1	2	3	/	-7.8	-4	9	0.3	-5.5
CCSc1ncccc1-c1nc2ccccc2[nH]1	-14	-7	0.0	0.2	9	-6	4.1	2.4
COCc1c(C#N)c(NCCc2ccc(F)cc2)nc(C)c1[N+](=O)[O-]	-1	4	3.2	-1.1	-5	16	2.2	1.7
CCn1c(S(=O)(=O)O)nc2ccccc21	8	-4	1.0	0.5	-1	-1	-0.4	-0.6
C/C(=N\Nc1cc(N2CCOCC2)nc(C)n1)c1cccc([N+](=O)[O-])c1	23	25	/	0.6	-1	28	-2.7	-2.9
O=C(Nc1ccccc1[N+](=O)[O-])c1cncc(Br)c1	-9	2	2.4	-0.5	6	-12	1.4	?
CCOc1ccc(C(C)C)cc1S(=O)(=O)Nc1ccc(Cl)cn1	2	-2	1.9	-0.4	-1	/	0.7	3.1
O=C(c1snnc1-c1ccccc1)N1CCOCC1	2	-3	-0.7	0.6	0	2	-2.7	1.2
Cc1ccc2oc(C(=O)NCc3ccc4c(c3)OCO4)c(C)c2c1	7	-6	7.9	-0.2	-12	2	-2.9	-0.5
O=c1c(-c2ccccc2)coc2c(CN3CCCCC3)c(O)ccc12	-4	-5	i	-0.5	-3	-4	6.6	2.8
Cc1ccc2nc3c(c(Nc4cccc(O)c4)c2c1)CCC3	6	20	-9.2	0.2	-1	36	4.2	1.5
O=C(Nc1ccc(S(=O)(=O)N2CCCC2)cc1)c1ccc(OCC2CCCO2)cc1 (stereo not given)	3	9	3.1	-0.7	2	3	-1.6	-3.9
COc1ccc(C(=O)OCc2ccccc2F)cc1S(=O)(=O)N1CCCC1	2	3	2.3	-0.3	/	/	-1.1	/
O=C(COC(=O)/C=C/c1ccccc1Cl)NC1CCCC1	-3	1	1.3	0.5	/	/	-1.0	/
O=C(CNS(=O)(=O)c1ccc2c(c1)OCCCO2)N1CCN(c2ccc(F)cc2)CC1	-5	-4	1.1	0.0	/	/	5.5	/
COc1ccc(Nc2oc(-c3ccco3)nc2S(=O)(=O)c2ccc(F)cc2)cc1	-4	-2	-6.0	-0.3	12	20	-2.5	0.4
COc1ccc(S(=O)(=O)N(C)CC(=O)Nc2ccccc2OC)cc1C	-1	4	1.7	1.7	-2	-6	-6.6	0.6
COc1ccccc1NC(=O)CSc1nnc(-c2ccoc2C)n1C	1	-8	3.1	-0.4	-2	4	-0.2	-0.7
COc1ccc(-n2c(Cc3cccn3C)nnc2SCC(=O)Nc2ccc(Cl)cc2)cc1	-14	-4	4.1	0.1	-9	1	0.0	5.2
O=C(Nc1nc(-c2ccncc2)cs1)c1ccc(F)cc1	-6	3	0.7	-2.1	-29	21	-1.7	-0.7
CCN(CC)C(=O)C1CCN(S(=O)(=O)c2ccc3oc4ccccc4c3c2)CC1	-23	16	0.0	-0.1	-6	?	1.4	-0.3
COc1ccc(Br)cc1/C=C/c1ccc2cccc(O)c2n1	-3	20	-1.5	1.1	-6	44	-0.6	-1.9
CCNC(=O)NC(=O)CSc1ccc2ccccc2c1	1	/	0.7	-0.1	-21	1	-3.9	1.5
COCc1cc(=O)[nH]c(Nc2nc3ccccc3o2)n1	2	53	3.4	-3.7	19	31	11	5.1
COc1ccc(NC(=O)/C(C#N)=C/c2c(C)nn(-c3ccc(F)cc3)c2Cl)cc1Cl	20	2	3.8	0.3	0	-1	-3.0	3.7
CCC(=O)N1CCN(c2nc3ccccc3s2)CC1	-4	/	-2.1	-2.7	2	9	-2.2	0.3
O=C(NNC(=O)c1ccncc1)Nc1ccc([N+](=O)[O-])cc1	6	12	/	-1.6	-9	-6	-6.8	-0.4
Cc1c(CCOC(=O)c2ccc(N3CCOCC3)c([N+](=O)[O-])c2)sc[n+]1CC#N	40	-5	7.5	3.6	-2	0	3.0	-6.5
CSc1cccc(NC(=O)c2cnn3ccccc23)c1	-11	8	2.5	-5.6	-4	16	0.1	-2.0
CCC(NC(=O)c1ccccc1NC(=O)c1ccco1)C(=O)NNC(=O)c1ccc(OC)cc1 (stereo not given)	3	-6	-4.3	0.3	-13	2	-6.1	0.0
CCCCn1c(N)c(Br)c(=O)[nH]c1=O	-3	-7	2.7	1.1	0	9	0.0	-4.6
COc1ccc(S(=O)(=O)Nc2ccc3c(c2)C(=O)N([C@H](C)CO)C[C@H](C)[C@@H](CN(C)S(=O)(=O)c2cccs2)O3)cc1	1	1	1.5	-0.3	/	/	0.3	/
Next section
SMILES	B2AR ag	Beta apoptosis	UCH37 DUB inh	A1 inh	Calb FLC	T cruzi repl	LANA-H2A inh	RanGTP-Impb inh
Cc1ccc(OCCSc2nc3ncnc(N)c3[nH]2)cc1	2	-5	0.3	0.6	-3	8	-0.2	-3.6
COc1ccc(Sc2nnc(-c3ccccc3)cc2C#N)cc1	-2	5	0.6	-0.6	1	1	-11	?
C/C(=N\NC(=O)COc1ccc([N+](=O)[O-])cc1)C(C)(C)C	-5	-1	/	1.8	-32	-18	2.0	?
O=C(NCC1CCCO1)c1cccc(-n2cnnn2)c1 (stereo not given)	-2	5	4.0	0.5	-4	-8	3.0	1.0
Cc1ccccc1N1CCN(CC(=O)Nc2nccs2)CC1	-7	-5	2.0	-1.6	-2	-8	0.1	-0.9
COc1ccccc1CNc1n[nH]c(NCc2ccccc2OC)n1	-3	2	3.5	0.4	-1	/	-7.7	/
COc1cc2c(cc1OC)CN(C(=O)c1ccc(Br)o1)CC2	-9	-2	1.9	0.9	4	-8	-0.5	23
OCC1CCCC(n2cnc3c(=S)nc[nH]c32)O1 (stereo not given)	0	1	5.2	0.5	1	3	-5.2	3.4
CCOC(=O)C1CCCN(C(=O)C2CCCN(S(C)(=O)=O)C2)C1 (stereo not given)	-6	/	2.1	-0.1	5	-2	2.8	-1.4
O=C(CNc1ccccc1)c1ccc([N+](=O)[O-])cc1	36	6	/	0.5	7	4	1.8	3.4
O=C(CCNS(=O)(=O)c1cccc2nonc12)N1CCN(c2cccc(Cl)c2)CC1	-1	7	3.5	-0.1	30	13	-5.9	-4.5
O=C(CCN1C(=O)c2ccccc2C1=O)NC1=NCCS1	0	-13	-1.7	-0.5	4	11	-6.4	-0.5
CCOc1ccc(C2/C(=C(\O)c3cccc(OC)c3)C(=O)C(=O)N2c2cc(C)on2)cc1OC (stereo not given)	6	-3	49*	-0.7	1	-26	0.0	2.1
COC(=O)c1[nH]c2ccc(C)cc2c1NC(=O)CN1CCCC(C)(C)C1	-2	4	-1.5	-8.3	-5	11	-0.6	4.7
CN(C/C=C/C#CC(C)(C)C)Cc1cccc2ccccc12	22	11	-0.5	0.2	/	-4	2.4	1.0

Not a hit list; any-hit rate near 4.3%.
